Bfl-1 A1 inh: inhibitors of the anti-apoptotic protein A1, read as caspase activation; MEF A1-2A-BIM cells, Caspase-Glo 3/7 luminescence, 3 h; percent of clofoctol response, vehicle zero; caspase activation, % (test concentration not listed); 330,000 tested, 0.066% active; AID 2462;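 active means over half of replicate activation scores above 10%, or exactly half above 10 with the replicate mean above 10; inconclusive means replicate mean below 10 yet half the replicates above 10; inactive means over half of replicates below 10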;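 further: wells of about 30 µL received 50 nL stock; many hits fall short of the cut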
T cruzi inh: blocks replication of Trypanosoma cruzi; AID 1885; inhibition, % (test concentration not listed); T. cruzi beta-gal in NIH3T3, luminescence, 90 h; 300,000 tested, 1.4% active;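 active means mean inhibition across valid replicates above about 55%, limit read from the data; inconclusive means mean below that limit but half or more replicates reach it; inactive means mean below it, under half of replicates reach it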;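 further: signal also drops with host cell toxicity which is not excluded here; 0% = plate median of DMSO wells and 100% = zero luminescence signal; higher percent means less beta-gal luminescence so fewer parasites; stock transfer was 50 nL into about 50 µL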
Beta cell apopt: beta cell apoptosis inhibition; INS-1E cytokine-induced death, ATP luminescence, 48 h; percent of positive-control rescue, neutral wells zero; protection from apoptosis, % (concentration not given with the values); 300,000 tested, 0.8% active;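 active means all replicates at 75% or more, or half of them and the mean; inconclusive means half reach 75% but not the mean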;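 further: 0% = cytokine-treated negative control wells and 100% = positive control rescue; higher means more ATP so stronger rescue from cytokine killing; wells of about 40 µL received 100 nL stock; the first replicate is given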
Vif TR-FRET: inhibitors of Vif binding to APOBEC3G peptide, primary screen, biochemical, TR-FRET, GST-Vif 1-94, biotin-A3G peptide, dose response retest (AID 1117319); TR-FRET GST-Vif / biotin-A3G peptide binding; higher % means a stronger effect; test concentration not given here; strong numbers were not always called active; one-dose inhibition, %; IC50 in µM for titrated hits; 260,000 tested, 0.57% active;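 active means above the screen mean plus three standard deviations and confirmed in dose response; inconclusive means results disagree or hit not tested in dose response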;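 further: Vif residues 1-94 fused to GST binding biotinylated APOBEC3G peptide 110-148; 0% = full assay without inhibitor and 100% = GST in place of GST-Vif; retest series ran down from 100 µM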
AF4-AF9 inh: inhibitors of human MLL-AF4/AF9 interaction | AlphaScreen, biotin-AF4 peptide binding to FLAG-AF9 | inhibition, % at 10 µM | AID 651704 | P42568 | 350,000 tested, 0.47% active;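 active means every replicate reaching a set inhibition limit, whatever the replicate mean, cut at about 25% in these data; inconclusive means mean inhibition reaches that limit but some replicates miss it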;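 further: 0% = plate neutral control median and 100% = total signal loss; the record names both 10 and 1 µM as test concentration; the first replicate is given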
LANA-H2A inh: blocks KSHV LANA binding to histone H2A/H2B; 320,000 tested, 0.6% active; AID 2629; inhibition, % (concentration not given with the values); cell-free LANA-H2A/H2B peptide, fluorescence polarization; Q9QR71; in the data active means inhibition mostly above about 10%, no sharp cut-off; inactive means mostly below about 6.7%;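 further: stock transfer was 7.5 nL into about 10 µL; 0% = median of vehicle wells and 100% = median of positive control wells; one replicate is shown; the record names a cut of 25% in any replicate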
Target sequence (Q9QR71 whole entry, looked up): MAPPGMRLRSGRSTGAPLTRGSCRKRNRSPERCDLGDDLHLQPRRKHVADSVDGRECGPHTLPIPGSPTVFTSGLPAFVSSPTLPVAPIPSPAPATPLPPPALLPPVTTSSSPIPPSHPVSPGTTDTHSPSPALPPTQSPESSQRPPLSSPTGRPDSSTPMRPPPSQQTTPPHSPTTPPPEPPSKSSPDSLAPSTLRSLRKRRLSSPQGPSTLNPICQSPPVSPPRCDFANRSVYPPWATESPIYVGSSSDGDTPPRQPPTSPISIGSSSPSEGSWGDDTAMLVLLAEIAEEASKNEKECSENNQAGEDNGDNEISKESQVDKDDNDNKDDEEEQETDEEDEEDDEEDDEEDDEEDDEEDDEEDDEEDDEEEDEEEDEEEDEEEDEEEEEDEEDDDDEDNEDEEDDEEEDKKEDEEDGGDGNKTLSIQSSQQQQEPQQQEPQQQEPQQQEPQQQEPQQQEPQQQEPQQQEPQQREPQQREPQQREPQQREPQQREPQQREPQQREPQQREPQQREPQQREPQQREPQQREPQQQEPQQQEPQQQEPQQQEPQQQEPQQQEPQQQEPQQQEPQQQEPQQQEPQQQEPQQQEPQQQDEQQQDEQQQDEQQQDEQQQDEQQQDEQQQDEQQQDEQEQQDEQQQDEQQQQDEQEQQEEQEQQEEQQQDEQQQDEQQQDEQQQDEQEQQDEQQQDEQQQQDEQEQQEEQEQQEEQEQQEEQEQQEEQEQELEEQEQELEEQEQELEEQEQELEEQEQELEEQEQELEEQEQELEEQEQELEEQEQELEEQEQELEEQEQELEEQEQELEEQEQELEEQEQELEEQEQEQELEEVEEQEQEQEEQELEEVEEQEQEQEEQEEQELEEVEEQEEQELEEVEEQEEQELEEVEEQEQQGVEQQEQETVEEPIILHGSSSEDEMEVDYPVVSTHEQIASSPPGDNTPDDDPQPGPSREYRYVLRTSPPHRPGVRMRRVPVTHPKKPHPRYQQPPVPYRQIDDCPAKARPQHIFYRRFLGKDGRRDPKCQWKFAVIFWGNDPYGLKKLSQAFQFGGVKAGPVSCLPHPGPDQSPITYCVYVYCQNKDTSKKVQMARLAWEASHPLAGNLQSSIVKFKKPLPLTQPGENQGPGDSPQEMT
Calb FLC: C. albicans growth modulation with fluconazole; C. albicans CaCi-2 (fluconazole-resistant clinical isolate) + fluconazole, Alamar Blue growth, 48 h; growth inhibition, % (concentration not given with the values); 300,000 tested, 0.57% active;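 active means most replicates above 75%; inconclusive means exactly half above 75%; inactive means most below 75%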;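 further: all wells also contain fluconazole at 8 µg/ml as a sub-toxic cotreatment; 0% = median of DMSO wells and 100% = median of geldanamycin control wells; wells of about 8 µL received 7.5 nL stock; the first replicate is given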
RanGTP-Imp inh: disruptors of Ran-importin-beta complex formation – biochemical, FRET, CFP-Ran, YFP-importin-beta, homogeneous, primary screen. cell-free CFP-Ran/YFP-importin-beta FRET ratio. inhibition, % (test concentration not listed). 300,000 tested, 1.1% active;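 active means most replicates above 15%; inconclusive means exactly half above 15%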;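 further: 0% = DMSO wells and 100% = Ran loaded with GDP instead of GTP; wells of about 40 µL received 100 nL stock; the first replicate is given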
* marks the source's active call; other numbers are inactive results; ? = inconclusive; nt = not tested or not shown; & = joins results of further samples.

SMILES | Bfl-1 A1 inh | T cruzi inh | Beta cell apopt | Vif TR-FRET | AF4-AF9 inh | LANA-H2A inh | Calb FLC | RanGTP-Imp inh
COc1ccc(C(=O)N2CCc3cc4c(cc3C2C)OCCCO4)cc1 (stereo not given) | 0.0 | 0 | nt | nt | -0.8 | 0.8 | -13 | -4.5
Cc1c(C(c2ccc(Br)cc2)c2c(C)n(C)n(-c3ccccc3)c2=O)c(=O)n(-c2ccccc2)n1C | 0.4 | 13 | 0 | nt | -5.8 | -2.6 | 4 | 4.5
COC(=O)NN=C1CCC(c2ccccc2)CC1 (stereo not given) | -1.5 | nt | -10 | nt | 0.6 | 1.2 | -7 | nt
O=C(CN1C(=O)NC2(CCOc3ccccc32)C1=O)c1ccc(F)cc1 (stereo not given) | 2.0 | -6 | 2 | 10% | -19 | 2.0 | 3 | -2.8
Nc1nc(-c2cccnc2)nc2sc3c(c12)CCCC3 | -2.1 | 23 | 1 | -2% | -2.4 | 1.2 | 50 | -1.1
CC(C)(C)NC(=O)C(c1ccco1)N(Cc1ccc2c(c1)OCO2)C(=O)Cn1nnc2ccccc21 (stereo not given) | 0.5 | -20 | -2 | 4%&-6% | nt | 1.3 | -47 | 0.9
O=C(CN1CCN(Cc2ccccc2)CC1)N1CCCc2ccccc21 | 1.0 | 15 | 0 | -3% | 2.7 | 1.7 | -6 | -3.1
CCOC(=O)N1CCN(C(=O)CNC(=O)c2nn(-c3ccc(OC)c(OC)c3)c(=O)c3ccccc23)CC1 | -0.4 | 11 | 3 | nt | -3.3 | 4.6 | 11 | 6.4
Cc1cccc(OCc2nnc(SCC(=O)N3CCN(C(=O)c4ccco4)CC3)n2C)c1C | -0.7 | -3 | -5 | 17%&-7% | -57 | -3.4 | 2 | 4.8
Cc1ccccc1-n1nnnc1SCC(=O)NCC1(N2CCOCC2)CCCCC1 | -0.4 | nt | -5 | 2% | 0.3 | nt | nt | nt
Cc1cc(C)n2nc(SCc3cc(=O)oc4cc(O)ccc34)nc2n1 | 0.2 | -13 | 2 | ? | nt | -4.2 | 7 | 0.3
O=C(O)CSc1nc2ccc(Cl)cc2[nH]1 | 0.4 | nt | 1 | 15% | nt | 4.9 | -14 | nt
CC(Oc1ccc(Br)cc1)C(=O)Nn1c(=S)[nH]c2ncccc2c1=O (stereo not given) | -0.7 | -13 | 3 | 20% | nt | 2.7 | -6 | 1.2
COc1ccc(/C=N/NC(=O)CNC(=O)COc2ccccc2)cc1 | -0.5 | -3 | -3 | ? | nt | -0.9 | 1 | 0.7
Cc1nnc(SCCN2CCOCC2)n1-c1cccc(Cl)c1 | -0.3 | -4 | -4 | 5% | nt | 0.9 | -14 | -1.5
COc1ccc(/C=C/c2ccccc2)cc1[C@H]1[C@H]2C=CC[C@@H](C)[C@@H]2C(=O)N1Cc1ccccc1 | 0.9 | ? | 16 | 17% | nt | 4.4 | -2 | 1.9
CCn1cnc2cc(NCc3nc4ccccc4n3Cc3ccccc3)ccc21 | -0.8 | 4 | 3 | 9% | nt | 3.0 | -16 | 6.6
O=C(Nc1ccon1)c1ccccc1F | 0.5 | -6 | -7 | -2% | nt | 4.1 | -10 | -5.3
O=S(=O)(NC1CCCC1)c1cccc(-c2nnc(-c3ccccc3)o2)c1 | -0.4 | 32 | 5 | -7% | nt | -2.2 | 4 | -4.8
COc1ccc(NC(=O)C2=C(C)Nc3ncnn3C2c2ccccc2C(F)(F)F)c(OC)c1 (stereo not given) | -0.5 | nt | -10 | 8% | nt | 0.5 | nt | nt
Cc1ccc(S(=O)(=O)N(C)c2ccc(OCC(=O)NCC3(N(C)C)CCCCC3)cc2)cc1 | -0.6 | 15 | -3 | nt | 9.1 | -1.0 | -1 | 1.1
N#Cc1ccc(COC(=O)C2CCC(=O)N2)cc1 (stereo not given) | 0.5 | -8 | -4 | 1% | nt | -6.3 | -1 | -5.7
COC(=O)C1(C)NC(c2cccs2)C2C(=O)N(c3ccc(F)cc3)C(=O)C21 (stereo not given) | -0.2 | -8 | -1 | -7% | nt | -1.7 | -2 | -0.1
COc1cccc(-c2nnc(SCC(=O)NCc3ccc4c(c3)OCO4)n2Cc2ccco2)c1 | -8.1 | -3 | -3 | 5% | nt | -0.4 | 17 | 1.7
COc1ccc(S(=O)(=O)N2CCCC(C(=O)NC3CCCC3)C2)cc1OC (stereo not given) | 0.8 | -1 | -2 | nt | -0.6 | -1.2 | -12 | -2.3
(next part)
SMILES | Bfl-1 A1 inh | T cruzi inh | Beta cell apopt | Vif TR-FRET | AF4-AF9 inh | LANA-H2A inh | Calb FLC | RanGTP-Imp inh
Cc1cccc(C)c1-n1cccc1/C=C1/C(=N)N2C(=NC1=O)SN=C2S(C)(=O)=O | 0.7 | 2 | -8 | 7% | -4.4 | -6.1 | 16 | -6.3
CCOC(=O)c1cc(C(=O)NC(C)c2ccccc2)c(=O)[nH]c1C (stereo not given) | 0.5 | 10 | -3 | nt | -2.1 | -4.7 | 2 | 2.0
Cc1cc(C)cc(NC(=O)[C@H](Cc2c[nH]c3ccccc23)NC(=O)[C@@H]2Cc3ccccc3CN2)c1 | -0.6 | 18 | -5 | nt | 1.2 | -0.4 | 21 | 6.6
CC1(C)NC(=O)N(CC(O)COc2ccc(N3C(=O)c4ccccc4C3=O)cc2)C1=O (stereo not given) | -0.1 | -5 | -2 | 22% | nt | 2.5 | -3 | 1.4
Cc1ccc(NC(=O)c2cc(S(=O)(=O)N3CCCCC3)c[nH]2)cc1F | 0.2 | -10 | -2 | nt | -4.1 | 1.0 | 2 | -1.9
CCC1c2ccc(C)n2CCN1C(=O)Nc1ccccc1OC (stereo not given) | -0.3 | 7 | 6 | 20% | nt | -3.7 | 2 | -2.2
CCc1nc(N2CCN(C(=O)CCl)CC2)c2c3c(sc2n1)CC(C)CC3 (stereo not given) | 0.1 | 53 | 17 | -9% | 6.0 | 0.7 | 2 | -4.7
Cc1ccc(SCCNC(=O)c2ccc(C)c(S(=O)(=O)Nc3ccccc3C)c2)cc1 | 0.0 | 41 | 14 | 3% | -38 | -0.1 | -2 | -6.4
CCOC(=O)c1cccc(OC(=O)CCNC(=O)c2ccc(Cl)cc2)c1 | -0.6 | nt | 0 | nt | 0.4 | -0.1 | nt | nt
O=C(COC(=O)c1ccc[n+]([O-])c1)Nc1ccc([N+](=O)[O-])cc1Cl | 0.7 | nt | 1 | nt | -0.7 | 0.8 | nt | nt
COC(=O)C1=C(C)NC(C)=C(C(=O)OC)C1C(=O)OCC(=O)Nc1ccc(C(C)=O)cc1 | -0.1 | 1 | -23 | nt | 0.4 | -6.7 | 3 | -1.9
Cc1nc(N2CCCCC2)c2c(C)c(C(=O)Nc3cccc(C(F)(F)F)c3)sc2n1 | 0.2 | 65* | 27 | 2% | 0.4 | 3.2 | 22 | 7.5
O=C(Nc1ccc2c(c1)OCO2)c1ccc(Cl)s1 | 0.0 | 12 | 6 | 10% | nt | -4.1 | -28 | 1.9
Cn1c(-c2ccccc2)c(/C=N/NC(=O)c2cccnc2)c2ccccc21 | 0.6 | 9 | nt | -56% | 1.9 | -1.5 | 4 | 1.7
Cc1ccc(Cn2c(=N)n(CC(O)COc3ccccc3)c3ccccc32)cc1 (stereo not given) | -1.4 | 59* | 66 | ? | 4.3 | -9.2 | ? | 0.7
Cc1ccc(NC(=O)CSCC(=O)Nc2nnc(C)s2)cc1 | 1.4 | -1 | nt | 5% | 0.2 | -2.4 | -2 | 4.2
COc1cccc(/C=N/NC(=O)CSc2ccccc2C)c1O | 1.1 | -3 | -9 | 5% | nt | nt | 68 | -3.5
O=C(COC(=O)c1ccco1)NCc1cccs1 | 0.0 | -11 | 0 | 1% | nt | -0.4 | -8 | 9.1
CCn1nc(NS(=O)(=O)c2ccccc2[N+](=O)[O-])c2cc3ccc(C)cc3nc21 | -1.6 | -13 | 1 | -3% | nt | 2.3 | 2 | 5.6
COc1ccccc1C(=O)Nc1ccc(N2CCN(S(C)(=O)=O)CC2)cc1 | 0.2 | -3 | 4 | 0% | nt | 0.0 | 12 | -3.6
NCC(=O)Nc1ccc(Br)cc1 | -0.1 | -4 | -9 | -4% | 0.2 | 0.4 | 59 | -1.0
CC1CCCN(CCCNC(=O)CCn2nc(-c3ccccc3)ccc2=O)C1 (stereo not given) | 0.0 | 5 | -3 | 0% | -2.2 | nt | -10 | 1.4
CCn1cc(C(=O)O)c(=O)c2cc(F)c(N3CCN(C(=O)Nc4ccccc4)CC3)cc21 | 0.4 | -6 | nt | ? | nt | 2.6 | ? | -2.4
Cc1ccc(S(=O)(=O)N2CCN(C(=O)COC(=O)/C=C/c3ccc(F)cc3)CC2)c(C)c1 | -0.3 | 3 | -6 | 3% | 0.1 | -3.1 | 7 | -4.3
O=C(Nc1ccc2oc(=O)ccc2c1)c1cc([N+](=O)[O-])ccc1N1CCOCC1 | 0.3 | -10 | 6 | 3% | -11 | -2.3 | -3 | -2.0
Next records
SMILES | Bfl-1 A1 inh | T cruzi inh | Beta cell apopt | Vif TR-FRET | AF4-AF9 inh | LANA-H2A inh | Calb FLC | RanGTP-Imp inh
O=C(/C=C/c1ccc(F)cc1)NCCNC(=O)/C=C/c1ccc(F)cc1 | 0.7 | -11 | -8 | 0% | -2.8 | -3.4 | 4 | 0.1
CC(C)OCCCNC(=O)C(Cc1ccccc1)NS(=O)(=O)c1ccc2c(c1)CCC(=O)N2 (stereo not given) | -0.2 | -3 | -1 | 5% | 0.0 | 1.2 | -1 | 0.0
O=C(N/N=C/c1ccccn1)c1cc(-c2ccccc2Cl)n[nH]1 | 0.2 | 11 | 2 | 2% | 3.1 | -2.1 | 15 | 1.8
Cc1cc(C(=O)COC(=O)c2ccc(F)cc2F)c(C)n1C1CC1 | -4.0 | nt | -2 | -3% | -5.7 | -5.2 | nt | nt
CCC1=NN2C(=N)/C(=C\c3ccc(OCCOc4ccc(NC(C)=O)cc4)c(OC)c3)C(=O)N=C2S1 | -1.2 | -5 | -2 | 0% | 1.7 | -1.8 | -5 | -2.7
CC(C)(C)C1(C)OC(=O)C(=Cc2ccc(OCC(=O)Nc3ccccc3)cc2)C(=O)O1 (stereo not given) | -1.4 | 4 | -3 | 14% | nt | 25* | 7 | -1.7
O=C(NCCN1CCOCC1)c1ccc(CS(=O)(=O)c2ccc(Cl)cc2)o1 | 0.1 | -4 | -7 | 3% | nt | -5.8 | -11 | 2.8
Cn1c(SCC(=O)Nc2ccc3c(c2)n(C)c(=O)n3C)nnc1-c1ccncc1 | -0.2 | -4 | 4 | nt | -4.7 | -0.9 | -6 | 6.0
Cc1nn(CCCC(=O)NCc2ccc(Cl)cc2)c(C)c1[N+](=O)[O-] | 0.5 | -8 | -3 | -5% | nt | -2.4 | 29 | 2.5
Cc1c(NC(=O)C(C)OC(=O)/C=C/c2ccc(OC(F)F)cc2)c(=O)n(-c2ccccc2)n1C (stereo not given) | 0.5 | -3 | -2 | -5% | -11 | -1.4 | -1 | 0.4
CC(=O)c1sc(NCc2ccccc2)nc1C | -0.4 | -17 | -7 | nt | -2.0 | 3.4 | -2 | 3.0
CCN(CC)S(=O)(=O)c1ccc(N2CCN(CCO)CC2)nc1 | 0.7 | -1 | nt | nt | nt | 1.8 | -1 | 0.2
